# Screening data: PubChem BioAssay, National Center for Advancing Translational Sciences (NCATS)
# VDR inhibitor: vitamin D3 receptor (human) inhibition; P11473; VDR-SRC2-3 peptide fluorescence polarization, 2 h; Potency, µM, for inactives: max response, negative = inhibition, hits mostly inhibitors; 0.93% of 400,000 active; AID 504847; active means well fitted inhibition curve with a large enough effect; inconclusive means small, poorly fitted or top-dose-only effect, or another doubt; inactive means no such curve, though single readings can be large or run the other way; further: series mostly up to about 120 µM
# Target sequence (P11473 whole entry, looked up): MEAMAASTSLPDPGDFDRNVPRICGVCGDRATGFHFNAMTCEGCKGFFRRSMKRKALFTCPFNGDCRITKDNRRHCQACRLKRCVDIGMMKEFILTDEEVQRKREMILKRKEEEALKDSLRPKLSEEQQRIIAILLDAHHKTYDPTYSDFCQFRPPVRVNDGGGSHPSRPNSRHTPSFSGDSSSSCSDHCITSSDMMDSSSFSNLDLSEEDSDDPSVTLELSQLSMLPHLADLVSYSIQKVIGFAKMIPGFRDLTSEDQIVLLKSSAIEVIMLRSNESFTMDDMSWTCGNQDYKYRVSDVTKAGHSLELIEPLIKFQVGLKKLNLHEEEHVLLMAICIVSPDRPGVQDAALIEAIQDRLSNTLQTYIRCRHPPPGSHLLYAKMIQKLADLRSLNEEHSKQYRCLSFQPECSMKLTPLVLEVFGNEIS
#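 After 23 nl compound addition and a short centrifugation, plates sat for 2 hours at ambient temperature; polarization of fluorescence then indicated loss of VDR binding to peptide SRC2-3.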
# Starred values were filed as active, the others as inactive; ? = inconclusive; & = joins results of further samples; [ ] = another dose, or the depositor's remark. On the % scale 0 is the no-effect control and ±100 the full control effect; potency means the concentration at half of the fitted maximal effect. Not all compounds are listed, so the mix of outcomes need not match the whole.
SMILES,VDR inhibitor
CCCOc1ccc(NC(=O)CC2C(=O)N(c3ccccc3)C(=O)N2Cc2ccc(F)cc2)cc1 (centres undefined),6%
Cc1ccc(CS(=O)(=O)c2cn(CC(=O)N(C)c3ccccc3)c3ccccc23)cc1,-1%
COc1ccc(Cc2noc(CN(C)CC3CCN(Cc4ccccc4)CC3)n2)cc1OC,-21%
Cc1cc(N2CCN(Cc3cn(C)nc3-c3ccccc3F)CC2)cc(C)n1,1%
COc1ccccc1NC(=O)CSc1nc(O)cc(=O)[nH]1,-31%
COc1ccc(-c2c3c(=O)n(C)c(=O)n(C)c3cn2-c2cc(OC)ccc2OC)cc1,15%
Cc1ccc(CN2CCSc3ccc(C(=O)N4CCN(c5ccccc5)CC4)cc32)cc1,-11%
CCCn1c(SCC(=O)Nc2nc(C)c(C(=O)OC)s2)nnc1C(C)C,6%
O=C(Nc1ncc([N+](=O)[O-])s1)C1COc2ccccc2O1 (centres undefined),-11%
CCCNc1ncnc2[nH]ncc12,-15%
O=C(CSc1n[nH]c(-c2ccccc2)n1)Nc1ccccc1O,5%
COC(=O)Cc1ccc(NC(=S)NCc2ccc(Cl)cc2)cc1,-18%
CC[C@H](C)[C@H]1CNC(=O)C(=O)N1CC1CCN(CCCc2ccc(OC)c(OC)c2)CC1,-21%
COC(=O)c1ccc2c(=O)n3nc(Nc4cc(OC)ccc4OC)sc3nc2c1,13%
Cc1cc(C)c(CN2CCN(C(=O)Cn3cnc4c(NCc5ccccc5)ncnc43)CC2)c(C)c1,-19%
Cc1cc(C)cc(-c2nc(-c3ccncc3)no2)c1,-17%
COCCn1c(N)c(N(Cc2ccccc2)C(=O)c2cc3ccccc3o2)c(=O)[nH]c1=O,-4%
COc1ccc(-c2nc3c4ccccc4ccn3c2CN2CCOCC2)cc1OC,-18%
CN1CCN(S(=O)(=O)c2ccc(NC(=O)c3ccco3)cc2)CC1,17%
CNC(=O)c1ccc2c(c1)N(Cc1cc(C)ccc1C)C(=O)c1ccccc1S2,7%
CSc1nc(N2CCOCC2)c2c(c1C#N)CC(C)(C)OC2,4%
COC(=O)[C@H](C)NC(=O)Nc1ccc(S(N)(=O)=O)cc1,-17%
COc1ccc(OCC(=O)N2CCN(C(=O)c3ccco3)CC2)cc1,-21%
COc1ccc(/C=C2/Sc3ccc(C(=O)NCCCN4CCOCC4)cc3NC2=O)cc1OC,4%
COc1cccc(-c2nc(Nc3ccncc3)c3ccccc3n2)c1,17%

# Looked up one by one from the entries so far, 3 records:
SMILES,VDR inhibitor
CN1CCN(S(=O)(=O)c2ccc(NC(=O)c3ccco3)cc2)CC1,17%
COc1ccc(/C=C2/Sc3ccc(C(=O)NCCCN4CCOCC4)cc3NC2=O)cc1OC,4%
CCCNc1ncnc2[nH]ncc12,-15%

# Following part:
SMILES,VDR inhibitor
Cc1cc(-c2csc(NC(=O)c3ccc(=O)[nH]c3)n2)c(C)n1Cc1ccccc1,3%
COc1ccccc1CNC(=O)Cn1ccc2cc(S(=O)(=O)N3CCCC3)ccc21,-9%
O=C(NC1=NCCS1)c1sc2cc(F)ccc2c1Cl,-14%
COc1ccc(-c2nc3c(c(SCC(=O)N(C)c4ccccc4)n2)Cc2cc(C)ccc2O3)cc1,-22%
Cn1c(NC(=O)/C=C/c2ccccc2)cc(=O)n(C)c1=O,-5%
COc1ccc(N2CCN(C(=O)C(CC(C)C)NS(=O)(=O)c3ccc4nc(C)sc4c3)CC2)cc1 (centres undefined),-11%
CCCCN(CC)C(=O)c1ccccc1Oc1ccccc1,6%
Cc1ccccc1C(=O)OC1OC(=O)C(Cl)=C1Nc1ccccc1 (centres undefined),13%
O=C(Nc1ccc(S(=O)(=O)N2CCOCC2)cc1)C1CCCCC1,-17%
Nc1c(-c2nc(-c3ccccc3)no2)nnn1CC(=O)Nc1cccc(F)c1,1%
Cc1ccc(C)c(OCc2cc(C(=O)N3CCN(c4ccccc4)CC3)no2)c1,11%
COc1ccc(CNC(=O)c2cccnc2SC)cc1OC,-5%
Cc1ccc(CNC(=O)[C@H](C)[C@H]2C[C@]2(C)[C@H](NC(=O)OCc2ccccc2)c2ccccc2)o1,-4%
Cc1ccc(NC(=O)Cn2nnc3sc4c(c3c2=O)CCCC4)c(C)c1,2%
O=C(COC(=O)[C@H](Cc1ccccc1)NC(=O)c1ccco1)Nc1ccccc1OC(F)F,?
COCCn1nnnc1C(c1ccccc1)N1CCN(C)CC1 (centres undefined),5%
O=Cc1c(-[n+]2ccccc2)nc([O-])n1-c1ccccc1,-1%
CCN(C(=O)c1cc2c(s1)-c1c(C)cccc1OC2)c1cc(C)ccc1C,0%
O=C(CSc1nc(=O)[nH]c2c1CCC2)NCc1ccccc1Cl,15%
CCOc1ccc(NS(=O)(=O)c2ccc3c(c2)N(C(C)=O)CCO3)cc1,-4%
Cc1cc(=O)oc2cc(OCc3ccc(C(=O)OCC(=O)Nc4ccccc4OC(F)F)cc3)ccc12,-6%
O=C(Nc1ccc2c(c1)CCCN2C(=O)c1cccs1)c1c(F)cccc1F,-1%&3%
COc1cccc(CNS(=O)(=O)c2ccc3c(c2)CC(C)N3C(C)=O)c1 (centres undefined),2%
CCc1ccc(C(c2ccc(CC)cc2)C(Cl)Cl)cc1,12%
Oc1ccc(Cl)cc1CNn1cnnc1,12%
SMILES,VDR inhibitor
O=C1c2ccccc2C(=O)N1CCSc1n[nH]c(=S)s1,?
CCN(CC)S(=O)(=O)c1ccc(C(=O)Nc2ncn(Cc3ccccc3)n2)cc1,24%
CCOc1ccccc1NC(=O)C(=O)N/N=C/c1ccc([N+](=O)[O-])cc1,-2%
COc1ccc2cc(C3c4cc(OC)c(OC)cc4CCN3C(=O)c3ccco3)c(=O)[nH]c2c1 (centres undefined),37%[activator]
CC1(C)Cc2c(cnn2-c2ccccc2)-c2c1c1ccccc1n2CC(O)CCl (centres undefined),-2%
C#CCOCCOCCOCCNc1nc(N2CCN(C(=O)Cn3cc(CCCCN)nn3)CC2)nc(N2CCN(C(=O)[C@H](CCCCN)n3cc(CCC(=O)O)nn3)CC2)n1,-5%
COc1ccc(CCCc2nnc(SCC(=O)Nc3ncc(C)s3)o2)cc1,2%
CC1(c2ccccc2Cl)NC(=O)N(CC(=O)c2ccc3c(c2)OCO3)C1=O (centres undefined),3%
COc1cccc(COCC(O)Cn2cnc3cc(C)c(C)cc32)c1 (centres undefined),-15%
COCCn1c(SCC(=O)N2CCCCCC2)nc2c(c1=O)SCC2,-7%
CC(C)CNC(=O)Nc1cc(C(=O)NCc2ccc(C(C)C)cc2)ccc1N1CCCC1,5%
CC(C)c1nc(SCC(=O)N2CCOCC2)c2c(=O)n(C)c(=O)n(C)c2n1,6%
NC(=O)c1nnsc1Sc1c(C(N)=O)nnn1-c1cccc(N)c1,6%
COc1ccc(-n2c(C)c3c(OC)cccc(=O)c3c2C)cc1,-1%
COc1ccc(C2=NNC(=O)CC2)cc1,-18%
CC1CCCCN1C(=O)COC(=O)c1cc([N+](=O)[O-])ccc1N (centres undefined),-2%
O=C(c1ccc(COc2ccc(Cl)cc2)cc1)N1CCCCC1,7%
O=C(COC(=O)C12CC3CC(CC(C3)C1)C2)Nc1nccs1,8%
Cc1cccc(NC(=O)COC(=O)c2cccc3c2C(=O)c2ccccc2C3=O)c1C,-19%
Cc1ccccc1NC(=O)Cn1c(NCC(C)O)nc2ccccc21 (centres undefined),12%
CC(C)[C@H](NC(=O)N1CCn2c1nc1ccccc12)C(=O)N[C@H](C(=O)O)c1ccccc1,3%
CCC1(C)Cc2ccccc2-c2c1c(=O)n(Cc1ccccc1)c1nnnn21 (centres undefined),-6%
Cc1cc(Nc2ccccc2O)c2ccccc2n1,-4%
O=C(c1ccccc1)N(C1=NCCCCS1)c1ccccc1,9%
Cc1cc(-c2nnc(SCC(=O)Nc3ccccc3C(F)(F)F)o2)c(C)n1-c1ccccc1,-3%
SMILES,VDR inhibitor
O=C1CC(c2ccc(Cl)cc2)Sc2nc(-c3ccc(F)cc3)nn21 (centres undefined),-6%
COc1ccc(C(c2sc3ncnn3c2O)N2CCN(c3ccccc3F)CC2)cc1OC (centres undefined),-11%
CCOC(=O)CNC(=O)C1CCC(CNS(=O)(=O)c2cccc3nsnc23)CC1 (centres undefined),13%
CS(=O)(=O)c1ncc(Cl)c(C(=O)Nc2c(C(=O)Nc3ccccc3)oc3ccccc23)n1,-1%
CC(=O)Oc1cccc(N2C(=O)C3CC=C(Cl)CC3C2=O)c1 (centres undefined),-2%
O=C(Cc1ccc(Cl)cc1)Nc1ccc2oc(-c3ccncc3)nc2c1,10%
Fc1ccccc1N1CCN(c2cnc3ccccc3n2)CC1,1%
CC1CCN(C(=O)c2ccc(CSc3nc4ccncc4n3Cc3ccc(F)cc3)cc2)CC1,-14%
CC(=O)N1CCN=C1SCc1ccc(C(F)(F)F)cc1,-3%
Cc1ccc(C(=O)COC(=O)C(C)N2C(=O)C3C4CCC(C4)C3C2=O)cc1 (centres undefined),-4%
COC(=O)c1cc2sccc2n1CC(=O)Nc1ccc(OC)c(OC)c1OC,-4%
COc1ccc(OC)c(N2C(N)=NC(N)=NC23CCCC3)c1,-12%
CCOC(=O)Nc1sc2nc(C)cc(C)c2c1-n1cccc1,15%
Cc1ccc(C)c(N2CCN(c3nc4ccc(C(=O)c5ccccc5)cc4n4cnnc34)CC2)c1,18%
CN1CCN(C(=O)CCc2nnc3ccc(N4CCC5(CC4)OCCO5)nn23)CC1,?
Cc1ccc(OCCNC(=O)CCNS(=O)(=O)c2ccc(C)cc2)cc1,0%
CC(C)CN1C(=O)C(=O)N(CC(=O)N(C)CC(=O)Nc2ccc(Cl)c(C(F)(F)F)c2)C1=O,-11%
CC(C)N(Cc1nc(-c2ccc(Cl)cc2)no1)Cc1nccn1C,5%
Cc1cccc(NC(=O)C2CCN(S(=O)(=O)c3ccc4c(c3)OCCCO4)CC2)n1,13%
O=C1OC(/C=C/c2ccc(Cl)cc2)=NC/1=C/c1ccco1,1%
CNS(=O)(=O)c1cccc(C(=O)OCC(=O)Nc2ccccc2F)c1,-9%
COc1cc(NC(=S)N2CCCCC2C)c(OC)cc1Cl (centres undefined),-13%
CCc1cc2c(=O)c(-c3cnn(-c4ccccc4)c3)c(C)oc2cc1OCC(=O)Nc1ccc(F)c(F)c1,-3%
Cc1ccc(NC(=S)NCc2ccco2)c(C)c1,-23%
O=C(Nc1cc(S(=O)(=O)N2CCCCC2)ccc1N1CCCCC1)C1CC1,-3%
SMILES,VDR inhibitor
CCOc1ccc(CCNC(=O)CN(C)S(=O)(=O)c2cccs2)cc1OCC,-15%
C=CCOC(=O)C1=C[C@H](c2ccc(C(F)(F)F)cc2)C[C@H](OCCCCO)O1,?
Cc1c(CCC(=O)N[C@@H](CCCNC(N)=O)C(=O)O)c(=O)oc2cc3oc4c(c3cc12)CCCC4,-15%
CC(=O)c1sc2nc(=O)c(C)nn2c1C,6%
CCCCNC(=S)Nc1cccc2cnccc12,0%
Cc1cccc(C(=O)N(C(=O)c2cccc(C)c2)N(C)C)c1,-14%
COc1ccc(OC)c(CN2CCN(CCc3ccccc3)C(CCO)C2)c1 (centres undefined),25%
Cc1nc(-c2c(-c3ccc(O)cc3O)noc2C(F)(F)F)cs1,-9%
CC(=O)Nc1ccc(S(=O)(=O)Nc2nc3ccccc3nc2Nc2cccc(O)c2)cc1,9%
CCn1cc(C(=O)NCCCN(C)c2ccccc2)c(=O)c2cc(S(=O)(=O)N(C)C)ccc21,-13%
CC1CN(C(=O)c2ccc3c(c2)OCO3)OC(c2ccccc2)O1 (centres undefined),-9%
CCC1C(=O)N=C(SCC(=O)Nc2ccccc2)NC1=O (centres undefined),0%
Cc1ccccc1OCC(=O)Nc1nnc(-c2ccncc2)s1,24%
CCOc1ccccc1CNC(=O)C1CCN(S(=O)(=O)c2c(C)noc2/C=C/c2ccc(C)cc2)CC1,9%
COc1ccc(NC(=O)c2c(NC(=O)CNCc3ccco3)sc3c2CCC3)cc1,-7%
CCOCCOC(=O)C(C)Oc1ccc(Oc2nc(Cl)ccc2Cl)cc1 (centres undefined),-3%
Cc1ccc(S(=O)(=O)CC(=O)Nc2cc(C)on2)cc1,10%
O=[N+]([O-])c1ccc(N2CCOCC2)cc1SCc1ccco1,-1%
CCN(CC)CCOc1ccc(Br)cc1,13%
O=C(O)c1ccc2c(c1)C(=O)N(c1cccc(-c3nc4ccccc4s3)c1)C2=O,-5%
CCn1cc(C(=O)NCCCN2CC(C)CC(C)C2)c2cc(OC)c(OC)cc2c1=O (centres undefined),8%
COc1ccc(Nc2cc(C(=O)NCCCN(C)C3CCCCC3)c3ccccc3n2)c(OC)c1,6%
N#CCC(=O)Nc1ccc(C(=O)NCCC(c2ccccc2)c2ccccc2)cc1,-5%
CC(=O)N1c2ccc(S(=O)(=O)N3CCCCC3)cc2CC1C(=O)Nc1ccc(F)cc1C (centres undefined),?
CCc1nnc(NC(=O)CSc2sc3c(O)cc(=O)[nH]c3c2C#N)s1,-2%
CC(=O)Nc1ccc(NC(=O)c2ccccc2CC[N+](=O)[O-])cc1,16%

# Structures from the list above that contain two or more sulfur atoms, in the order listed:
SMILES,VDR inhibitor
CCCn1c(SCC(=O)Nc2nc(C)c(C(=O)OC)s2)nnc1C(C)C,6%
O=C(NC1=NCCS1)c1sc2cc(F)ccc2c1Cl,-14%
COc1ccc(N2CCN(C(=O)C(CC(C)C)NS(=O)(=O)c3ccc4nc(C)sc4c3)CC2)cc1 (centres undefined),-11%
O=C1c2ccccc2C(=O)N1CCSc1n[nH]c(=S)s1,?
COc1ccc(CCCc2nnc(SCC(=O)Nc3ncc(C)s3)o2)cc1,2%
COCCn1c(SCC(=O)N2CCCCCC2)nc2c(c1=O)SCC2,-7%
NC(=O)c1nnsc1Sc1c(C(N)=O)nnn1-c1cccc(N)c1,6%
CCOC(=O)CNC(=O)C1CCC(CNS(=O)(=O)c2cccc3nsnc23)CC1 (centres undefined),13%
CCOc1ccc(CCNC(=O)CN(C)S(=O)(=O)c2cccs2)cc1OCC,-15%
CCc1nnc(NC(=O)CSc2sc3c(O)cc(=O)[nH]c3c2C#N)s1,-2%
